VDR inhibitor: Inhibitors of the vitamin D receptor (VDR): qHTS | AID 504847, 2011 | Potency, µM, without a hit: max response, negative = inhibition, actives largely listed as inhibitors | VDR-SRC2-3 peptide fluorescence polarization, 2 h | Vitamin D3 receptor (Homo sapiens), P11473 | 400,000 tested, 0.93% active; active = well fitted inhibition curve with a large enough effect; inconclusive = small, poorly fitted or top-dose-only effect, or another doubt; inactive = no such curve, though single readings can be large or run the other way; note: series mostly up to about 120 µM
Target sequence (P11473 whole entry, looked up): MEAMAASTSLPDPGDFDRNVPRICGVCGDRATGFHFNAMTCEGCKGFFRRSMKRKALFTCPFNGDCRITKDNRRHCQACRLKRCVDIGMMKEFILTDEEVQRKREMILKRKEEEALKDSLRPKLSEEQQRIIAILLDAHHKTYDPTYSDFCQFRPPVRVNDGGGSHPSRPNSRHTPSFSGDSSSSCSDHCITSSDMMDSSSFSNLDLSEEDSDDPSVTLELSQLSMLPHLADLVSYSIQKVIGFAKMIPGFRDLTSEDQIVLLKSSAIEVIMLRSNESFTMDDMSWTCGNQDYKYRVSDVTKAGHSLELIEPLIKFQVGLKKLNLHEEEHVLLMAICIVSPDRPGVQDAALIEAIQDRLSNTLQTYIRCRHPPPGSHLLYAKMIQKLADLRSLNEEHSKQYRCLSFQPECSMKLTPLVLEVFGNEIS
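After 23 nl compound addition and a short centrifugation, plates sat for 2 hours at ambient temperature; polarization of fluorescence then indicated loss of VDR binding to peptide SRC2-3.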
* hit, by the source's call; ? = inconclusive. % is set by controls: 0 for no effect and ±100 for the full control effect; potency is the fitted concentration of half-maximal effect. Some of the compounds tested; rates above refer to the full screens.

SMILES | VDR inhibitor
COC(=O)c1ccccc1Nc1ccnc(Cl)n1 | 24.5%
CC(C)c1cc(-c2cc(-c3ccccc3)on2)nc(NC2CCCC2)n1 | -14.9%
CCN(CC)CCCNC(=O)CCCn1ncn2c(cc3occc32)c1=O | -18.6%
CCOc1ccc(S(=O)(=O)N2CCCC(C(=O)NCC3CCCO3)C2)cc1 (configuration not stated) | 4.6%
CN(CC(=O)Nc1cccc(C#N)c1)S(=O)(=O)c1cc2c(cc1Cl)NC(=O)CO2 | 9.9%
O=C(/C=C/Nc1ccc(Nc2ccccc2)cc1)c1cccs1 | 10.0%
COC(=O)C1=C(C)N(CC2CC2)C(=NCc2cccc(C(F)(F)F)c2)N[C@H]1c1ccccc1 | -14.7%
O=C(Nc1cccc(C(F)(F)F)c1)c1cccnc1N1CCOCC1 | 1.9%
Cc1ccc(Cl)cc1NC(=O)CSC1=Nc2ccccc2C2=NC(Cc3ccccc3)C(=O)N12 (configuration not stated) | 7.8%
CCOC(=O)N1CCc2c(sc(NC(=O)CN3CCOCC3)c2C(=O)Nc2ccccc2)C1 | ?
O=C(NC(c1ccccc1)c1ccccc1)N1CCOCC1 | -21.6%
O=C(NC1CCCCC1)N1CCN(c2nc(-c3ccccc3)cs2)CC1 | 2.1%
O=C(NC(=S)Nc1cc(C(F)(F)F)ccc1N1CCOCC1)c1ccco1 | -5.7%
Cc1ccc(=O)n(C(C(=O)NCc2ccco2)C(=O)c2ccc(F)cc2)c1 (configuration not stated) | 0.7%
CNC(C)c1cc(OC)ccc1OC (configuration not stated) | -12.3%
O=c1c2ccccc2nc(SCc2ccc([N+](=O)[O-])cc2)n1-c1ccccc1 | 6.0%
COc1cc(NC(=O)COC(=O)c2ccc(S(=O)(=O)N3CC(C)CC(C)C3)cc2)c(C)cc1[N+](=O)[O-] (configuration not stated) | -0.4%
COc1ccccc1C(=O)N1CCN(c2nc3cc(C)c(C)cc3cc2C#N)CC1 | -4.2%
Cc1cc(C)cc(N2C(=O)CC(c3ccccc3)CC2=O)c1 | -0.1%
O=C(C1=C[C@@H](c2ccc3c(c2)OCO3)C[C@@H](OCc2ccc(CO)cc2)O1)N1CCOCC1 | -2.8%
CC1CCN(C(=O)CN2C(=O)C(=O)c3ccccc32)CC1 | ?
CC(=O)N1CCCc2cc(S(=O)(=O)N3CCC(C(=O)N(Cc4ccccc4)C(C)C)CC3)ccc21 | -12.1%
CC(C)Oc1ccc(CNC(=O)c2ccc3c(c2)nc2n3CCOC2)cc1 | 5.3%
CC(C)C(c1nnnn1Cc1cccs1)N1CCN(C2CCCC2)CC1 (configuration not stated) | 16.0%
CC(=O)OCC(=O)C1(O)CCC2C3CCC4=CC(=O)C=CC4(C)C3C(O)CC21C (configuration not stated) | -24.6%
Cc1ccccc1C(=O)NC(C(N)=O)P(=O)(OC(C)C)OC(C)C (configuration not stated) | 2.9%
O=C(NCCN1CCOCC1)C(=O)c1c[nH]c2ccccc12 | -5.3%
O=C1OCCC1Sc1nnc(-c2ccc(Cl)cc2Cl)o1 (configuration not stated) | -9.5%
COc1ccc(CNC2CCCc3ccccc32)c(OC)c1 (configuration not stated) | 1.3%
Cc1cc(C)n(C2=NS(=O)(=O)c3ccccc32)n1 | -23.8%
COc1cc2c(=O)c(S(=O)(=O)c3ccc(F)cc3)cn(Cc3ccc(Cl)cc3)c2cc1OC | 7.3%
CCCCn1c(C(C)NC(=O)c2ccccc2)nc2ccccc21 (configuration not stated) | -2.8%
COc1ccc(CCNC(=O)CCc2nc3sc4c(c3c(=O)[nH]2)CCCC4)cc1 | 7.7%
CCOC(=O)C1=C(CN2CCN(c3ccccc3)CC2)NC(=O)NC1c1ccc(C)cc1 (configuration not stated) | -10.8%
CCOC(=O)c1c(C)n(C(=O)c2ccco2)c(=O)n1C(=O)c1ccco1 | ?
Cc1ccc(C(=O)Nc2ccc(F)cc2)cc1NC1=NC2CS(=O)(=O)CC2S1 (configuration not stated) | -1.3%
O=C(CN1C(=O)CSc2ncccc21)N1CCOCC1 | 10.6%
COc1cc(CNn2c(C)n[nH]c2=S)cc(Cl)c1OCC(=O)NC(C)(C)C | -15.3%
CCN1C(=O)CC(C(=O)O)SC1=Nc1ccc(OC)cc1 (configuration not stated) | -14.8%
CCOC(=O)/C(=N\Nc1cc(Cl)ccc1Cl)N1CCOCC1 | 10.5%

Sorted by the number under VDR inhibitor (descending): four from the list above.
| smiles | VDR inhibitor |
| --- | --- |
| O=C(CN1C(=O)CSc2ncccc21)N1CCOCC1 | 10.6% |
| CN(CC(=O)Nc1cccc(C#N)c1)S(=O)(=O)c1cc2c(cc1Cl)NC(=O)CO2 | 9.9% |
| CCCCn1c(C(C)NC(=O)c2ccccc2)nc2ccccc21 (configuration not stated) | -2.8% |
| CC(=O)OCC(=O)C1(O)CCC2C3CCC4=CC(=O)C=CC4(C)C3C(O)CC21C (configuration not stated) | -24.6% |

(continued)
SMILES | VDR inhibitor
COCCn1c(=NC(=O)CSCC(=O)NC2CCCCC2)sc2cc(OC)ccc21 | -9.6%
Cc1ccc(NC(=O)/C=C\C(=O)NCC(=O)O)cc1C | -9.2%
Cc1ccc(CCNC(=O)CN(C)S(=O)(=O)c2ccc3c(c2)c(=O)n(C)c(=O)n3C)cc1 | -7.8%
CCc1cccc(C)c1NC(=O)CN(C)Cc1cccc(F)c1 | -6.5%
O=C(Nc1cccc(Cl)c1Cl)c1cc(S(=O)(=O)N2CCC3(CC2)OCCO3)ccc1F | 13.1%
Cc1ccn2c(=O)c(NC(=O)COc3ccccc3)c(C)nc2c1 | 2.0%
Cc1ccc(C(=O)Nc2ncc(Cc3ccc(SC(F)F)cc3)s2)cc1 | -9.0%
Cc1ccn2c(=O)c(C(=O)NC(C)c3ccccc3)c(O)nc2c1 (configuration not stated) | 2.5%
CCn1c(SCC(=O)NCc2ccc(F)cc2)nc2c(c1=O)SC(C)C2 (configuration not stated) | -3.4%
CCCC1(c2ccccc2)NC(=O)N(CC(=O)N2CC(=O)Nc3ccccc32)C1=O (configuration not stated) | 10.3%
O=C(CSc1nc(=O)n2ccccc2n1)NCc1ccccc1Cl | 10.8%
Cc1cccc(OCC(=O)Nc2cc(S(=O)(=O)N3CCOCC3)ccc2N2CCCC2)c1C | -4.6%
CC(C)(C)OC(=O)C(C(=O)OC(C)(C)C)c1ccc(Cl)nn1 | 6.6%
Cc1nc(C(=O)N/N=C/c2[nH]ncc2Br)cs1 | 0.6%
CCOC(=O)c1cnc(-n2nc(C)cc2C)nc1NC(C)c1ccccc1 (configuration not stated) | -10.7%
CCN(CC)S(=O)(=O)c1cccc(C(=O)N/N=C/c2ccc(N3CCOCC3)cc2)c1 | -7.7%
COc1ccccc1N1CCN(Cc2cc(=O)c(OCC(=O)NC3CCCC3)co2)CC1 | 15.1%
CN(Cc1ccccc1)C(=O)C1CCN(S(=O)(=O)c2cccc3nsnc23)CC1 | ?
CC(NC(=O)C1CCCCC1)C(=O)NC1=NCCS1 (configuration not stated) | -3.2%
N#C/C(=C(/O)COc1cccc2ccccc12)c1nc2ccccc2[nH]1 | 0.3%
Cc1ccc(CNC(=O)CCc2c(C)nc3ncnn3c2C)cc1 | ?
COc1ccc(C(=S)N2CCOCC2)cc1OC(=O)c1cccc([N+](=O)[O-])c1 | -6.4%
CC(=O)c1cccc(NC(=O)c2ccc3c(c2)c(C)c(C)n3Cc2ccc(Cl)cc2)c1 | 22.3%
CCC(=O)NC(Nc1cccc(C)n1)(C(F)(F)F)C(F)(F)F | 4.0%
Cc1nn(CC(=O)N(C)C2CCS(=O)(=O)C2)c(C)c1[N+](=O)[O-] (configuration not stated) | 1.6%
COc1cc(/C=N/n2c(SC)nnc(C(C)(C)C)c2=O)ccc1O | 6.3%
CCCNS(=O)(=O)c1ccc(OCC(=O)OC)cc1 | 5.2%
O=C(NC(Nc1cc(C(F)(F)F)ccc1Cl)C(=O)c1ccccc1)c1ccccc1 (configuration not stated) | -10.6%
COc1ccc(C(=O)Nc2ccc3oc(-c4cc(Cl)ccc4Cl)nc3c2)cc1Br | 4.2%
CN(CCO)c1cc(N2CCN(C(=O)c3ccco3)CC2)c2nonc2c1[N+](=O)[O-] | -12.7%
COc1ccc(OCc2cc(C(=O)N(C)Cc3nccn3C)no2)c2ccccc12 | -13.5%
CC(C)Cn1c(=O)c(C(=O)Nc2ccncc2)c(O)c2ccccc21 | -0.7%
O=C(C1CCCN(S(=O)(=O)c2ccccc2)C1)N1CCCCC1 (configuration not stated) | -1.6%
COc1ccc(C(=O)Nc2cccc3ccccc23)cc1 | -5.5%
C=CCn1c(SCc2cc(=O)n3cc(C)ccc3n2)nnc1-c1cccc(C)c1 | 1.3%
O=C(COc1ccccc1)Nc1ccc(N2CCN(C(=O)c3ccco3)CC2)cc1 | 1.4%
CCc1c(C)sc(NC(=O)Cn2nc(C)c([N+](=O)[O-])c2C)c1C(N)=O | ?
O=C(O)Cn1nc(-c2ccc(Cl)cc2)ccc1=O | 3.6%
O=S(=O)(c1ccc(Cl)cc1)c1nc(-c2ccccc2F)oc1NCCCN1CCOCC1 | 3.3%
O=[N+]([O-])c1ncc(Br)cc1Nc1ccccc1 | -6.7%
FC(F)(F)c1ccc(C2[C@H]3CN(Cc4cccnc4)[C@H](c4ccccc4)C34CC2(c2cccnc2)C4)cc1 (some centres not stated) | ?
CCOc1ccc(-c2nnn(CC(=O)NCc3ccco3)n2)cc1 | 18.3%
CCCOC1CCCN(C(=O)c2ccc3oc(C(C)C)nc3c2)C1 (configuration not stated) | -19.8%
Cc1ccc(NC(=O)Cn2nnc(C(=O)NCc3ccc(Cl)cc3)c2N)cc1F | -0.5%
CCc1nnc(NC(=O)CSc2nnc(COc3cccc(C)c3)o2)s1 | 19.8%
O=C(O)/C=C/C(=O)Nc1c(F)cccc1F | 6.3%
N=c1n(CC(=O)O)c2ccccc2n1Cc1ccccc1Cl | 12.4%
C=CCN(c1ccccc1)S(=O)(=O)c1ccc2c(c1)oc(=O)n2C | -19.6%
CCOC(=O)C1(Cc2ccccc2)CCN(Cc2ccc(C3CCCCO3)s2)CC1 (configuration not stated) | -20.9%
COc1ccc2c(c1)CCCC2NS(=O)(=O)OCC(Cl)(Cl)Cl (configuration not stated) | -7.5%
O=C(Nc1cccc(NC(=O)c2ccco2)c1)c1cccc(Br)c1 | -15.7%
CN(C)CCNc1ccc(-c2nn(C)c(=O)c3ccccc23)cc1[N+](=O)[O-] | 1.5%
CC(=O)N1N=C(c2ccc(Br)cc2)CC1c1cn(C)c2ccccc12 (configuration not stated) | 2.5%
CC(=O)Nc1ccc(NC(=O)CS(=O)(=O)c2cn(CC(=O)N3CCC(C)CC3)c3ccccc23)cc1 | 10.6%
CCCC(=O)NC(c1ccc(N(C)C)cc1)c1c(O)ccc2ccccc12 (configuration not stated) | -3.6%
CC(=O)OCc1nc2sc3c(c2c(=O)[nH]1)CCCC3 | -8.7%
Cc1cccc(C(=O)Nc2c(C(=O)NCc3ccc(Cl)cc3)sc3nc(C)cc(C)c23)c1 | 0.9%
CCOc1ccc2c(c1)c(C(C)=O)c(C)n2-c1ccccc1 | 5.6%
CC(=O)Nc1ccc(NC(=O)C(C)OC(=O)C2CC(=O)N(CCc3ccccc3)C2)cc1 (configuration not stated) | 1.6%
C[C@H](CO)N1C[C@H](C)[C@@H](CN(C)S(C)(=O)=O)Oc2c(NC(=O)c3ccncc3)cccc2C1=O | 4.5%

Later entries
SMILES | VDR inhibitor
C[C@@H]1[C@H]2CCCC[C@H]2CN(C(=O)OC(C)(C)C)[C@@H]1CC(=O)c1ccccc1 | -13.9%
O=C(NCCSc1c[nH]c2ccccc12)C1CC1 | -15.8%
CC(=O)Nc1nc(SCc2ccc(Cl)cc2Cl)n[nH]1 | 4.8%
O=C(CSc1nnc(-c2ccncc2)o1)Oc1ccccc1 | 1.2%
CCc1cc(=O)oc2c(C)c(OCC(=O)N3CC[C@@]4(O)CCCC[C@H]4C3)ccc12 | 4.2%
Cc1cc(NC(=O)Cc2csc(-c3ccccc3)n2)ccc1Br | -5.0%
O=S(=O)(Nc1ccc(OC(F)(F)F)cc1)c1cccc2nonc12 | -8.0%
CCOc1ccc(Oc2ccc(NC(=O)CSc3nncn3C)cc2)cc1 | -23.2%
CC(C)(C)N1CC2(c3ccccc3)CN(C(C)(C)C)CC(c3ccccc3)(C1)C2=O | -3.9%
COc1ccc(C(=O)NCCCN2CCCC2=O)cc1 | -5.1%
Oc1cccc(/C=N/Nc2cc(N3CCCC3)nc(N3CCCC3)n2)c1 | ?
Cc1ccccc1/C=N/NC(=O)c1ccc(-n2cnnn2)cc1 | -4.8%
CC(C)(C)c1ccc(C(=O)CCCSC2=C(C#N)C(c3ccco3)C3=C(CCCC3=O)N2)cc1 (configuration not stated) | -13.3%
Cc1cc(C(=O)O)cc(S(=O)(=O)N2CCOCC2)c1C | -0.3%
CCCCN1CN(S(=O)(=O)c2ccc(OC)cc2)c2nc3ccccc3nc21 | 0.1%
NNC(=O)CN(CCc1ccccc1)S(=O)(=O)c1ccc(Cl)cc1 | 8.1%
CC(=O)Nc1cc(C(=O)N2CCCC2)ccc1S(=O)(=O)c1ccc(Cl)cc1 | -9.1%

Structures from the list above containing an NH in an aromatic ring (8):
SMILES | VDR inhibitor
O=C(NCCN1CCOCC1)C(=O)c1c[nH]c2ccccc12 | -5.3%
COc1ccc(CCNC(=O)CCc2nc3sc4c(c3c(=O)[nH]2)CCCC4)cc1 | 7.7%
COc1cc(CNn2c(C)n[nH]c2=S)cc(Cl)c1OCC(=O)NC(C)(C)C | -15.3%
Cc1nc(C(=O)N/N=C/c2[nH]ncc2Br)cs1 | 0.6%
N#C/C(=C(/O)COc1cccc2ccccc12)c1nc2ccccc2[nH]1 | 0.3%
CC(=O)OCc1nc2sc3c(c2c(=O)[nH]1)CCCC3 | -8.7%
O=C(NCCSc1c[nH]c2ccccc12)C1CC1 | -15.8%
CC(=O)Nc1nc(SCc2ccc(Cl)cc2Cl)n[nH]1 | 4.8%

Bioassay records: PubChem, National Center for Advancing Translational Sciences (NCATS)
